T cruzi repl: inhibitors of intracellular T. cruzi growth, primary screen, luminescence, NIH3T3 host cells. T. cruzi beta-gal in NIH3T3, 90 h. inhibition, % (test concentration not listed). AID 1885, 2009. 1.4% of 300,000 active;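 active means mean inhibition across valid replicates above about 55%, limit read from the data; inconclusive means mean below that limit but half or more replicates reach it; inactive means mean below it, under half of replicates reach it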;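 further: signal also drops with host cell toxicity which is not excluded here; 0% = plate median of DMSO wells and 100% = zero luminescence signal; higher percent means less beta-gal luminescence so fewer parasites; stock transfer was 50 nL into about 50 µL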
Beta cell apopt: inhibitors of cytokine-induced beta cell apoptosis, primary screen, luminescence; INS-1E cytokine-induced death, ATP luminescence, 48 h; percent of positive-control rescue, neutral wells zero; protection from apoptosis, % (test concentration not listed); 0.8% of 300,000 active;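 active means all replicates at 75% or more, or half of them and the mean; inconclusive means half reach 75% but not the mean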;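 further: 0% = cytokine-treated negative control wells and 100% = positive control rescue; higher means more ATP so stronger rescue from cytokine killing; wells of about 40 µL received 100 nL stock; the first replicate is given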
Beta2AR agonist: beta2AR agonists driving receptor internalization, primary screen, cell-based, FAP fluorogen, flow cytometry | Beta-2 adrenergic receptor (Homo sapiens), P07550 | Am2.2-beta2AR cells; reference of the scale not given here | response, % (no concentration beside the values) | 0.43% of 340,000 active;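 active means response above a set limit, near 3 SD of response in nonfluorescent compounds, cut at about 42% in these data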;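 further: stock transfer was 100 nL into about 11 µL; a reference agonist was the positive control; negative values mostly stem from fluorescent compounds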
Target sequence (P07550 whole entry, looked up): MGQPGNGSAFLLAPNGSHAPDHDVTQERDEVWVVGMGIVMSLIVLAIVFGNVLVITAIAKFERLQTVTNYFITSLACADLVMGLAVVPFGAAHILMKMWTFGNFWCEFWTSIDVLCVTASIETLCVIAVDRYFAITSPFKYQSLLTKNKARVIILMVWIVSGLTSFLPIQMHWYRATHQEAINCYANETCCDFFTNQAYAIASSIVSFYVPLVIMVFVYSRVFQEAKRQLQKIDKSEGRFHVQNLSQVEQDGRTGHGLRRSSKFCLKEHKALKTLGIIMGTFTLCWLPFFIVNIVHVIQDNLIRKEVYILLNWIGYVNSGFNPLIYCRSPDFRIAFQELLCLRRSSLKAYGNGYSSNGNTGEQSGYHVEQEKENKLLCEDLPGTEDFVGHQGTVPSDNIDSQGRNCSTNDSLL
A1 inh: caspase 3/7 activation in MEF A1-2A-BIM cells, primary screen, A1 inhibitor project, cell-based, luminescence, HTS; Caspase-Glo 3/7 luminescence, 3 h; percent of clofoctol response, vehicle zero; caspase activation, % (concentration not given with the values); 0.066% of 330,000 active; AID 2462, 2010;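 active means over half of replicate activation scores above 10%, or exactly half above 10 with the replicate mean above 10; inconclusive means replicate mean below 10 yet half the replicates above 10; inactive means over half of replicates below 10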;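 further: wells of about 30 µL received 50 nL stock; many hits fall short of the cut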
LANA-H2A inh: blockers of LANA interaction with H2A/H2B – biochemical, FP readout, HTS, primary screen. AID 2629, 2010. Protein LANA1 (Human herpesvirus 8 type P (isolate GK18)), Q9QR71. 0.6% of 320,000 active. cell-free LANA-H2A/H2B peptide, fluorescence polarization. inhibition, % (test concentration not listed); in the data active means inhibition mostly above about 10%, no sharp cut-off; inactive means mostly below about 6.7%;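 further: stock transfer was 7.5 nL into about 10 µL; 0% = median of vehicle wells and 100% = median of positive control wells; one replicate is shown; the record names a cut of 25% in any replicate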
UCH37 inh: inhibitors of human UCH37 deubiquitinase, primary screen, biochemical, Ub-AMC cleavage, fluorescence; Ubiquitin carboxyl-terminal hydrolase isozyme L5 (Homo sapiens), Q9Y5K5; purified proteasome/UCH37; AID 588478, 2011; inhibition, % (test concentration not listed); 0.33% of 330,000 active;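 active means mean of two replicates above 20%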;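 further: 0% = compound-free wells with enzyme and 100% = wells lacking proteasome; stock transfer was 100 nL into about 20 µL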
Target sequence (Q9Y5K5 whole entry, looked up): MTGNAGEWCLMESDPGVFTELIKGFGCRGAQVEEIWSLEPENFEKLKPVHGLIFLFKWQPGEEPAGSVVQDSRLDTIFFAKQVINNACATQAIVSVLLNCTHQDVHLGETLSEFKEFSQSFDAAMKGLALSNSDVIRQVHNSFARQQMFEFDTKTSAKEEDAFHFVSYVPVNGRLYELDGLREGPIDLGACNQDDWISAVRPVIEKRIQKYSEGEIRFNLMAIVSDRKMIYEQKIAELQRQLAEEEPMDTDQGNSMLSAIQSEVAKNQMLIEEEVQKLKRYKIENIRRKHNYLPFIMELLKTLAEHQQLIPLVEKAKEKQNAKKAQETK
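Signal – fluorescence, ex 355 nm, em 460 nm · System – Proteasome-bound UCH37 · Input – 0.15 nM proteasome as dispensed · Timing – 30 min preincubation with enzyme, 25 min cleavage at room temperature · Read-out basis – percent inhibition of cleavage signal versus uninhibited and no-proteasome wells · Medium – Tris-HCl pH 7.4 with ATP-MgCl2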
RanGTP-Imp inh: inhibitors of RanGTP-importin-beta interaction, primary screen, biochemical, FRET, CFP-Ran, YFP-importin-beta, homogeneous; AID 2216, 2009; cell-free CFP-Ran/YFP-importin-beta FRET ratio; inhibition, % (test concentration not listed); 1.1% of 300,000 active;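 active means most replicates above 15%; inconclusive means exactly half above 15%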;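 further: 0% = DMSO wells and 100% = Ran loaded with GDP instead of GTP; wells of about 40 µL received 100 nL stock; the first replicate is given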
Calb FLC: C. albicans growth inhibition with fluconazole, primary screen, CaCi-2 strain, Alamar Blue fluorescence; growth inhibition, % (test concentration not listed); C. albicans CaCi-2 (fluconazole-resistant clinical isolate) + fluconazole, 48 h; 0.57% of 300,000 active;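 active means most replicates above 75%; inconclusive means exactly half above 75%; inactive means most below 75%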;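 further: all wells also contain fluconazole at 8 µg/ml as a sub-toxic cotreatment; 0% = median of DMSO wells and 100% = median of geldanamycin control wells; wells of about 8 µL received 7.5 nL stock; the first replicate is given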
* hit, by the source's call; i = inactive; u = inconclusive; x = not tested or not shown; & = joins results of further samples.

Results follow in this order: T cruzi repl	Beta cell apopt	Beta2AR agonist	A1 inh	LANA-H2A inh	UCH37 inh	RanGTP-Imp inh	Calb FLC
CN1CCN(C2CCN(S(=O)(=O)c3ccc(C(C)(C)C)cc3)CC2)CC1
 : 39	x	12	x	x	x	-2.1	-6
CCOC(=O)C1=C(c2ccccc2)NC(=S)NC1c1ccc(C)c([N+](=O)[O-])c1 (stereo not given)
 : -3	-7	7	1.1	-8.4	3.7	1.1	-14
CC(=O)n1cc(N(C(=O)CCl)c2ccc(C)cc2)c2ccccc21
 : 38	-12	-162	1.7	-1.3	1.5	1.1	32
Cc1ccc(C(=O)C(C)OC(=O)c2ccc(Cl)nc2)cc1 (stereo not given)
 : 8	-5	2	0.8	1.0	1.7	6.1	3
NC(=O)NC(=O)COC(=O)CNS(=O)(=O)c1ccc(F)c(F)c1F
 : -2	-2	-4	0.5	2.1	-1.3	-1.1	-5
Cc1ccc(-c2nc(CS(=O)CC(=O)NC(C)CCc3ccccc3)c(C)o2)cc1 (stereo not given)
 : 0	6	6	0.3	0.3	0.8	3.3	0
Cc1nc2ncnn2c(C)c1CCC(=O)NCCC1=CCCCC1
 : -5	0	-3	0.1	0.9	x	3.6	6
FC(F)(F)c1cc(C(F)(F)F)c2ccc(N3CCN(c4ccc(Cl)cc4)CC3)nc2n1
 : u	2	-56	-0.3	4.3	-0.6	3.7	5
C(C#CCCCCCCCCC[n+]1ccccc1)#CCCCCCCCCC[n+]1ccccc1
 : 8	104*	21&9	0.1	-6.7	34*	8.3	110*
N/C(=N\N=C\c1ccc2c(c1)OCO2)c1nonc1N
 : -11	-1	1	-7.5	1.5	x	-0.8	0
O=C(c1ccc2nc(-c3ccco3)c(-c3ccco3)nc2c1)N1CCN(c2ncccn2)CC1
 : -8	-1	-1	-0.2	3.2	-40	u	18
N#CC1(NC(=O)COC(=O)CNC(=O)c2sc3ccccc3c2Cl)CCCCC1
 : x	2	-9	0.1	2.2	2.1	x	x
COc1ccc(-c2csc(NC(=O)COc3ccc(N(C)S(=O)(=O)c4ccc(C)cc4)cc3)n2)cc1
 : 51	2	6	-0.9	0.3	3.8	1.3	-2
Cc1ccccc1C1=NC(C(F)(F)F)(C(F)(F)F)c2c(n(C)c(=O)n(C)c2=O)N1
 : -4	1	-1	0.1	-0.1	7.0	1.9	0
CC(NC(=O)CNC(=O)c1cccc(Cl)c1)c1ccccc1 (stereo not given)
 : 1	2	6	0.4	-2.7	-2.5	0.8	-1
Cc1c(NC(=O)/C(C#N)=C/c2ccc(-c3ccc(Cl)c(Cl)c3)o2)c(=O)n(-c2ccccc2)n1C
 : 4	-5	4	0.6	x	7.8	2.6	3
Cc1cc(-c2ccc(C)c(S(=O)(=O)NCC3CCN(Cc4ccc(F)cc4)CC3)c2)on1
 : 29	6	1	1.2	-0.3	2.7	-0.6	2
CC(C)c1nc(-c2c(N)n(C)c(=O)n(C)c2=O)sc1C(=O)C(C)(C)C
 : 26	0	0	1.3	-0.2	2.2	2.6	21
C=CCN(CC=C)C(=S)Nc1ccccc1
 : 2	-5	-1	0.4	4.7	2.9	x	-10
COc1ccccc1NS(=O)(=O)c1ccc2oc(SCC(=O)N3CCNC3=O)nc2c1
 : x	-5	-8	-0.2	2.1	4.1	x	x
O=C(COC(=O)c1ccccc1SCC(=O)N1CCCC1)NCc1ccccc1
 : -2	1	-5	0.2	-0.2	-1.1	u	1
Cn1c2ccccc2c(=O)c2c(=O)n(Cc3ccco3)c(-c3ccc(F)cc3)nc21
 : 13	4	-3	-0.1	0.1	3.4	2.6	-3
CCNC(=O)COn1c(SCC(=O)NCC)nc2ccccc2c1=O
 : -7	-1	-3	-0.6	5.7	2.9	-0.6	-21
CSCCC(N=C1NS(=O)(=O)c2ccccc21)C(=O)NCCc1ccccc1 (stereo not given)
 : -4	-5	4	1.0	-5.0	2.0	4.2	2
CC(NC(=O)CN1CCN(c2ccccc2F)CC1)c1ccccc1 (stereo not given)
 : 2	x	0	0.7	0.3	2.8	1.8	1
Cc1ccc(S(=O)(=O)N2CCN(Cc3cccnc3)CC2)cc1
 : -10	-3	-2	-0.3	5.8	3.6	-5.0	-4
COc1cc(CNc2ccc(CNc3ncn[nH]3)cc2)ccc1OCC(=O)NC(C)(C)C
 : 2	0	-2	0.0	1.3	x	4.1	-7
COc1ccc(NC2=C(C(C)=O)C(c3ccc(OC)cc3)C(C(C)=O)C(C)(O)C2)cc1 (stereo not given)
 : 3	-3	11	0.1	4.4	8.9	7.4	-17
CC(=O)N1c2c(cc(Br)cc2S(=O)(=O)NCC2COc3ccccc3O2)CC1C (stereo not given)
 : 10	2	4	0.5	0.7	5.0	-0.6	28
CCCCCCC(=O)NCC(=O)OCC(=O)c1ccccc1
 : -3	-1	-6	-0.7	-2.7	-5.3	-0.7	-9

Single records, as listed above.
Record of Cn1c2ccccc2c(=O)c2c(=O)n(Cc3ccco3)c(-c3ccc(F)cc3)nc21 = T cruzi repl = 13; Beta cell apopt = 4; Beta2AR agonist = -3; A1 inh = -0.1; LANA-H2A inh = 0.1; UCH37 inh = 3.4; RanGTP-Imp inh = 2.6; Calb FLC = -3
Record of O=C(COC(=O)c1ccccc1SCC(=O)N1CCCC1)NCc1ccccc1 = T cruzi repl = -2; Beta cell apopt = 1; Beta2AR agonist = -5; A1 inh = 0.2; LANA-H2A inh = -0.2; UCH37 inh = -1.1; RanGTP-Imp inh = u; Calb FLC = 1

More structures follow.
Results follow in this order: T cruzi repl	Beta cell apopt	Beta2AR agonist	A1 inh	LANA-H2A inh	UCH37 inh	RanGTP-Imp inh	Calb FLC
O=C(NC(NNc1ccc([N+](=O)[O-])cc1)(C(F)(F)F)C(F)(F)F)c1ccc(Cl)cc1
 : 1	-3	14	-0.5	2.4	6.8	-1.4	u
C=CCc1cccc2cc(C(=O)N3CCOCC3)c(=O)oc12
 : 0	x	-2	-0.8	0.6	-4.8	6.1	-1
COC(=O)C1SCC2C(=O)N(Cc3ccc(F)cc3)CC(=O)N21 (stereo not given)
 : -26	-3	2	0.4	-3.5	2.1	2.9	8
C=CCN(c1nc(C)cc(OC)n1)S(=O)(=O)c1ccccc1
 : -9	-4	6	-0.1	2.5	1.5	-2.3	3
C=CCn1c(SCc2c(C)noc2C)nc2sc(C)c(C)c2c1=O
 : 17	14	-3	0.0	56*	6.0	u	-20
CCCn1nc(C(=O)NNC(=O)c2ccc(C)c(C)c2)c2ccccc2c1=O
 : x	2	3	0.7	-3.3	x	x	x
COc1ccc(OCC(=O)Nc2c(C(=O)N3CCN(C)CC3)oc3ccccc23)cc1
 : 2	-3	0	-0.1	-2.2	-1.1	-2.6	2
CN1CCCC(OC(=O)c2cccc(S(=O)(=O)N3CCCCCC3)c2)C1 (stereo not given)
 : 51	-4	4	-0.4	7.1	0.6	u	4
CC(=O)c1cccc(NC(=O)C(C)OC(=O)CCN=C2NS(=O)(=O)c3ccccc32)c1 (stereo not given)
 : -11	-3	3	1.2	-1.2	2.4	2.7	-3
COc1ccc(C2(C(=O)NCC3CCCO3)CCOCC2)cc1 (stereo not given)
 : -21	0	-13	-0.7	-4.8	0.9	-2.4	4
Cc1nonc1N1CCN(Cc2cn[nH]c2-c2ccc(F)cc2F)CC1
 : -4	1	-1	0.6	1.8	2.9	0.6	1
O=C(N/N=C/c1ccc([N+](=O)[O-])cc1)c1ccc2nc[nH]c2c1
 : -16	-4	2	-0.1	4.8	x	-3.7	2
COc1cc2ccccc2cc1C(=O)OCc1nc2ccsc2c(=O)[nH]1
 : x	-7	3	-0.2	i	-57	x	x
Nc1ncnc2c1ncn2[C@@H]1O[C@H](COP(=O)(O)O)[C@@H](O)[C@H]1O
 : -15	-2	3	0.3	2.1	0.1	1.8	x
Cc1ccc(S(=O)(=O)Cn2nnnc2C(CC(C)C)N2CCN(c3ccccc3)CC2)cc1 (stereo not given)
 : 15	10	-3	0.7	2.1	0.0	5.0	-23
Nc1ncnc2c1ncn2CCNCCc1ccccc1
 : -3	-3	2	0.6	1.5	1.0	2.5	-1
CCOc1ccccc1Nc1nnc(SCC(=O)N(C)C2CCS(=O)(=O)C2)s1 (stereo not given)
 : x	1	-7	0.4	-5.1	4.0	x	x
CC(C)c1ccc(NC(=O)CSc2nc(=O)n(CCCN3CCOCC3)c3c2CCCC3)cc1
 : 0	x	-4	0.8	6.9	2.5	-4.1	5
Cc1ccc(NC(=O)COC(=O)c2cccc3c(=O)c(C)c(-c4ccccc4)oc23)cc1
 : 6	-6	4	-0.7	-2.7	5.5	3.5	13
N#C/C(=C\c1ccccc1C(F)(F)F)C(=O)Nc1ccccc1F
 : -1	0	10	0.0	-12	6.3	4.7	1
CN1CCN(Cc2nc3ccccc3c(=O)n2Cc2nc(-c3ccc([N+](=O)[O-])cc3)cs2)CC1
 : 2	5	x	-0.4	2.6	6.3	3.7	12
CCn1c(SCC(=O)N2CCCC2=O)nnc1-c1cccs1
 : x	0	-8	-0.5	-433	-4.2	x	x
O=C(/C=C/c1cccc(F)c1)N1CCN(c2ncccn2)CC1
 : -7	-1	-5	0.0	-4.1	-0.4	4.5	1
COc1ccccc1C(=O)Nc1ccc2c3c(cccc13)CC2
 : 27	x	-12	0.3	-0.9	-12	0.7	0
CCCOc1ccc(C(=O)NCCN2CCOCC2)cc1
 : -1	-4	-9	0.2	6.4	2.1	-2.8	-1
CCOC(=O)COc1ccc([N+](=O)[O-])cc1
 : -4	-8	5	-0.3	0.1	1.9	-3.1	u
Cn1c(N)c(C(=O)COC(=O)CCCc2c[nH]c3ccccc23)c(=O)n(C)c1=O
 : -4	0	3	-0.6	-0.6	1.5	4.7	-1

Hits appear at their usual frequency. About 4.3% of those tested had a hit in this group.
